# Vaccinia mCherry: inhibitors of vaccinia virus infection (mCherry reporter signal); Potency, µM (top dose mostly 36.5 µM), for inactives: top-dose activity change, negative = inhibition, usual class: inhibitors; 310,000 compounds, 0.63% hits; Vaccinia virus mCherry reporter infection, fluorescence; about a quarter of the inactives have no number; active = well fitted inhibition curve with a large enough effect; inconclusive = small, poorly fitted or top-dose-only effect; inactive = no such curve, though single readings can be large or run the other way; tested in A549 cells; note: nearly all actives have a fitted effect of over 35% in size; inactives centre near -10
# Vaccinia Venus: inhibitors of vaccinia virus (Venus reporter) | Vaccinia virus Venus reporter expression, fluorescence | Potency, µM (titrated, usually from 36.5 µM), inactives show at the top dose activity change, negative = inhibition, hits mostly inhibitors | 330,000 compounds, 0.46% hits | AID 720580; active means well fitted inhibition curve with a large enough effect; inconclusive means small, poorly fitted or top-dose-only effect; inactive means no such curve, though single readings can be large or run the other way; tested in A549 cells; note: nearly all actives have a fitted effect of over 30% in size; inactives centre near -10
# Active calls of the source: *; i = inactive; ? = inconclusive; nt = no result given; & = joins results of further samples; [ ] = dose if it differs, or a comment. % is set by controls: 0 for no effect and ±100 for the full control effect; potency is the fitted concentration of half-maximal effect.
SMILES,Vaccinia mCherry,Vaccinia Venus
O=C(Nc1ccc(-c2nc3ccccc3c(=O)o2)cc1)c1ccco1,-15%,-9%
COc1ccc(S(=O)(=O)Cc2ccc(C(=O)N3CCN(c4ccccc4F)CC3)o2)cc1,i,-9%
COC(=O)[C@@]12C[C@@H](CC(=O)N3CCN(C(=O)c4ccco4)CC3)C(=O)N(Cc3cccc4ccccc34)C1=CCC(C)(C)C2,?,?
O=C(Cn1nnc2ccccc21)N/N=C/c1ccco1,i,-7%
COc1ccc(-c2nsc3c(N4CCN(C(=O)c5ccco5)CC4)ncnc23)cc1,i,-9%
CN(C)c1ccc(/C=C/c2nc3ccccc3c(=O)[nH]2)cc1,i,-15%
Cc1cc2c(cc1NS(=O)(=O)c1ccc(F)cc1)n(C)c(=O)c(=O)n2C,15%,1%
COc1cnn(-c2ccc([N+](=O)[O-])cc2)c(=O)c1Cl,i,-21%
CC1(C)CC(NC(=O)c2coc(=O)c(Br)c2)CC(C)(C)N1,nt,9%
CC(=O)N1CCN(c2ccc(OC[C@H]3CO[C@](Cn4ccnc4)(c4ccc(Cl)cc4Cl)O3)cc2)CC1,-30%&-4%,-24%&-25%
CCOC(=O)C1CCN(S(=O)(=O)c2cc(C(=O)N3CCCCC3)ccc2OC)CC1,-11%,-2%
O=C(O)c1cccc(S(=O)(=O)N2CCN(Cc3ccc4c(c3)OCO4)CC2)c1,-17%,2%
Cc1ccc(C)c(N2CCN(C(=O)C3CCCN(S(=O)(=O)c4cnc[nH]4)C3)CC2)c1 (stereo not drawn),-5%,-9%
Cc1ccccc1C(=O)NNC(=O)C1CC(=O)N(c2ccc3c(c2)OCCO3)C1 (stereo not drawn),-11%,-12%
CCOC(=O)N1CCC(NC(=O)CCC(=O)N2CCOc3ccccc32)CC1,i,-9%
CC(C)(C)NC(=O)CSc1nnc(-c2ccco2)n1Cc1ccco1,-11%,-13%
Cc1ccc(-c2nc3n(n2)Cc2ccccc2-3)cc1,-3%,-19%
COc1ccc(NC(=O)CCC(=O)N/N=C/c2cn(C)nc2C)cc1,-17%,-9%
CCCCN(C=O)c1c(CC)nc2ccc(C(=O)N(C)Cc3ccccc3)cn12,8%,0%
O=C(Nc1ccccc1)N(Cc1c[nH]c2ccccc12)C1CCCCCC1,?,-23%
Cn1cnc([N+](=O)[O-])c1Sc1nc(N)nc2c1ncn2Cc1ccccc1,13µM*,?
C/C(=N/NC(=O)c1cc(Cl)ccc1O)C12CC3CC(CC(C3)C1)C2,nt,-3%
Clc1ccc(CSc2nnc(-c3cccnc3)o2)cc1,-16%,-21%
COc1ccc(OC2CCN(C(=O)Nc3ccc(C)cc3)CC2)cc1,-11%,0%
CC(=O)/C(C(=N)N1CCN(c2cccc(Cl)c2)CC1)=C(\C)O,i,-13%
O=C(Oc1cc(=O)oc2ccccc12)c1ccccc1,-25%,-18%
CCCCN(CC)CCNC(=O)Cn1cc2c(n1)-c1c(oc(C(=O)N3CCCC3)c1C)CC2,-15%,-10%
CCCc1nn2c(=O)cc(COC(=O)c3cccs3)nc2s1,-28%,-16%
CCC1CN(C(=O)N2CCC(C(=O)N3CCN(c4ccccc4)CC3)CC2)c2ccccc2O1 (stereo not drawn),-6%,-7%
CCc1nnc(NC=C2C(=O)OC(C)(C)OC2=O)s1,-25%,-8%
CCOCCCNC(=O)c1cc2c(=O)[nH]c3ccccc3c2n1C,-7%,-12%
COc1cccc(-n2c(SCC(=O)c3ccccc3)nc3c([nH]c4ccccc43)c2=O)c1,-8%,-6%
CC(C)N1CCC(=NNC(=O)c2cccs2)CC1,-20%,-5%
COc1cc(C=O)ccc1OCC(=O)Nc1cccc(S(=O)(=O)N(C)c2ccccc2)c1,i,-10%
COc1ccccc1N1CCN(C(CNC(=O)C(=O)NCCN(C)C)c2cccnc2)CC1 (stereo not drawn),-4%,-12%
COc1ccc(C(=O)NCC(=O)N2CCCC(C(F)(F)F)C2)cc1OC (stereo not drawn),-18%,-5%
CCCCn1cnc2c1c(=O)[nH]c(=O)n2CCCC,-9%,-8%
Cc1ccccc1N/C=C/C(=C(C#N)C#N)N(C)C,-10%,-10%
CC(C)Cn1c(N)c(C(=O)COC(=O)/C=C/c2cccs2)c(=O)n(C)c1=O,i,-14%
COc1ccc(-c2cc(NC=O)c3ncc(-c4ccc(C(C)=O)cc4)n3c2)cn1,?,?
O=C(NCC(c1ccco1)N1CCOCC1)c1ccc(F)cc1 (stereo not drawn),-11%,-3%
CC(CNC(=O)c1cc(COc2ccc3ncccc3c2)on1)c1ccccc1 (stereo not drawn),-7%,-24%
O=C(NCc1ccc(F)cc1)C(=O)c1cn(CC(=O)N2CCCC2)c2ccccc12,-23%,-4%
CCc1ccc(NC(=O)CSc2nc(-c3ccccc3)no2)cc1,-8%[7.34 µM],-11%[7.34 µM]
COc1cccc(-c2ccc(NC(=O)C3CCCN(Cc4ccco4)C3)cc2)c1 (stereo not drawn),-20%,?
CC(C)CN(C(=O)COC(=O)CNC(=O)c1ccccc1)c1c(N)n(Cc2ccccc2)c(=O)[nH]c1=O,-7%,-1%
CCCN(CC(=O)Nc1ccccc1C)C(=O)c1ccc(N2CCCC(C)C2)c([N+](=O)[O-])c1 (stereo not drawn),-16%,?
CCSC1=NC2(CCN(C(=O)NC3CCCCC3)CC2)N=C1c1ccc(C)c(C)c1,-9%,-10%
CC(C)Oc1ccc(C(=O)Nc2ncn[nH]2)cc1,-8%,1%
CCNC(=S)Nc1ccc(-c2nc3ccccc3[nH]2)cc1,-19%,-22%
O=C(N/N=C/c1sc(N2CCOCC2)nc1-c1ccccc1)c1ccc(O)cc1,-8%,8%
Brc1ccccc1OCCCN1CCCCCC1,?,-5%
CCCCN(C=O)c1c(CC)nc2ccc(C(=O)NCc3ccccc3OC)cn12,51%[activator],-11%
O=C(CNC(=O)/C(=C\c1ccccc1)NC(=O)c1ccc(Br)cc1)OCc1ccccc1,nt,-6%
O=C(CSc1ccccc1)NCc1ccc(F)cc1,i,-16%
COc1ccccc1NS(=O)(=O)c1cc(NC(=O)c2ccccc2F)ccc1N1CCOCC1,-13%,-5%
COc1cccc(CNC(=O)C2CCCN(S(=O)(=O)c3c(C)n[nH]c3C)C2)c1 (stereo not drawn),-16%,-9%
O=C(COc1ccccc1)NCCSCc1ccccc1Cl,-4%,-2%
Cc1ccc(-c2nc3ccccc3o2)cc1NC(=O)Cc1ccc(Cl)cc1,3%,-1%
O=C(NC(=S)NCC1CCCO1)c1ccc([N+](=O)[O-])cc1 (stereo not drawn),-21%,-18%

# In the list so far, 6 contain an aryl thioether with sulfur outside any ring:
SMILES,Vaccinia mCherry,Vaccinia Venus
CC(C)(C)NC(=O)CSc1nnc(-c2ccco2)n1Cc1ccco1,-11%,-13%
Cn1cnc([N+](=O)[O-])c1Sc1nc(N)nc2c1ncn2Cc1ccccc1,13µM*,?
Clc1ccc(CSc2nnc(-c3cccnc3)o2)cc1,-16%,-21%
COc1cccc(-n2c(SCC(=O)c3ccccc3)nc3c([nH]c4ccccc43)c2=O)c1,-8%,-6%
CCc1ccc(NC(=O)CSc2nc(-c3ccccc3)no2)cc1,-8%[7.34 µM],-11%[7.34 µM]
O=C(CSc1ccccc1)NCc1ccc(F)cc1,i,-16%

# Carrying on.
SMILES,Vaccinia mCherry,Vaccinia Venus
O=C(NNC(=S)Nc1ccccc1)c1ccc2ncccc2c1,-27%,-29%
O=S(=O)(NCCc1csc(-c2cccnc2)n1)c1cccc(F)c1,-15%,-2%
Cc1occc1-c1nnc(SCC(=O)Nc2ccccc2)n1Cc1ccccc1,-15%,-13%
O=C(C[n+]1cccc(Br)c1)c1ccc2c(c1)CCCC2,-20%,-12%
CC(=O)c1ccc(NC(=O)c2ccc(N3C(=O)c4cccnc4C3=O)cc2)cc1,-2%,-1%
Cc1ccc2[nH]c(=O)c(C(c3nnnn3C3CCCC3)N(Cc3cccnc3)Cc3ccco3)cc2c1 (stereo not drawn),nt,-12%
N#Cc1nc(N2CCCC2)nc(N2CCCC2)n1,?,?
Cc1cc(C)n(-c2ccc3cccc(NS(C)(=O)=O)c3n2)n1,?,-5%
CCc1ccc(/C=N/NC(=O)c2ccc(OC3CCCC3)cc2)s1,-5%,-23%
Cc1nn(Cc2ccccc2)c(Cl)c1C(=O)OC1CCOC1=O (stereo not drawn),-11%,-10%
CCCCCC(=O)Nc1cc(S(=O)(=O)N2CCOCC2)ccc1Oc1ccc(OCC)cc1,-8%,-19%
C=CCOC(=O)C1C(C(=O)O)C2(Cl)C(Cl)=C(Cl)C1(Cl)C2(Cl)Cl (stereo not drawn),-26%,-17%

# Quoted at random: 2 records from the list.
SMILES,Vaccinia mCherry,Vaccinia Venus
CCCCCC(=O)Nc1cc(S(=O)(=O)N2CCOCC2)ccc1Oc1ccc(OCC)cc1,-8%,-19%
C=CCOC(=O)C1C(C(=O)O)C2(Cl)C(Cl)=C(Cl)C1(Cl)C2(Cl)Cl (stereo not drawn),-26%,-17%

# Next section:
SMILES,Vaccinia mCherry,Vaccinia Venus
CC(NC(=O)c1cc(COc2c(F)cccc2F)on1)c1cnn(-c2ccccc2)c1 (stereo not drawn),-10%,-17%
O=C(CSc1nnnn1-c1cccc(C(=O)O)c1)NC(c1ccccc1)c1ccccc1,i,-17%
CC(=O)Nc1ccc(-c2nnc3n(Cc4ccc(C)cc4)c(=O)c4ccccc4n23)cc1,-9%,1%
COCCNC(=O)c1cc(S(=O)(=O)N(C)C2CCCCC2)ccc1Cl,i,0%
CC(C)N(Cc1cnn(C)c1)Cc1nc(COc2ccccc2)no1,0%,-16%
C[C@H]1CN([C@@H](C)CO)C(=O)CCCn2cc(nn2)CO[C@@H]1CN(C)S(=O)(=O)c1ccc(C#N)cc1,-19%,-10%
C1=C(CCNCC2CCCCC2)CCCC1,-12%,-1%
CCn1c(SCC(=O)NCC2CCCO2)nc2cc(S(=O)(=O)N3CCCCC3)ccc21 (stereo not drawn),i,-16%
Cc1sc(Cc2nc(O)cs2)nc1-c1ccccc1,-11%,-5%
CN(CC(=O)Nc1ccc(OC(F)(F)F)cc1)C(=O)Cc1c(Cl)cccc1Cl,i,-10%
COC(=O)[C@@H]1CCCN1Cc1ccc2c(c1)CN(Cc1ccccc1F)CCO2,-10%,3%
Cc1cccc(N2CCN(C(=O)c3c(-c4ccccc4)noc3C)CC2)c1C,?,-21%

# An excerpt from above in order of count of non-hydrogen atoms, low to high:
SMILES,Vaccinia mCherry,Vaccinia Venus
Cc1cccc(N2CCN(C(=O)c3c(-c4ccccc4)noc3C)CC2)c1C,?,-21%
COC(=O)[C@@H]1CCCN1Cc1ccc2c(c1)CN(Cc1ccccc1F)CCO2,-10%,3%
CC(NC(=O)c1cc(COc2c(F)cccc2F)on1)c1cnn(-c2ccccc2)c1 (stereo not drawn),-10%,-17%
CC(=O)Nc1ccc(-c2nnc3n(Cc4ccc(C)cc4)c(=O)c4ccccc4n23)cc1,-9%,1%

# The list goes on:
SMILES,Vaccinia mCherry,Vaccinia Venus
CCOC(=O)CNC(=O)c1cc2c(=O)n3cccc(C)c3nc2s1,-10%,-1%
CCC(=O)Nc1ccc(CC)cc1-c1nc2ccccc2n(CC(=O)c2ccc(OC)cc2)c1=O,-17%,-12%
CCc1nnc(NC(=O)CN2CCN(S(C)(=O)=O)CC2)s1,-8%,10%
CCCCn1c(N)c(N(CC(C)C)C(=O)CCS(=O)(=O)c2ccc(C)cc2)c(=O)[nH]c1=O,i,-16%
CCN(CC(=O)Nc1ccccc1C(F)(F)F)C(=O)Cc1sc(C)nc1-c1ccc(F)cc1,-15%,-8%
CN1CCSc2ccc(C(=O)NCc3ccccc3F)cc21,-18%&-24%,-19%&-15%
COC(=O)C1=C(c2ccc(-c3ccccc3)c(F)c2)C[C@@H]2CC[C@H]1N2C(=O)NCCOc1ccc(OC)cc1,?,-28%
O=C(Cn1cnc2c(NCc3ccccc3)ncnc21)NCc1ccc2[nH]ccc2c1,-25%,-14%
CCN(C(=O)COC(=O)CCc1ccccc1OC)c1c(N)n(Cc2ccccc2)c(=O)[nH]c1=O,-15%,-13%
CCNC(=O)c1ccc(=O)n(Cc2ccc(Cl)cc2Cl)c1,-15%,-9%
COc1ccc(OC)c(NC(=O)CC2SC(=Nc3ccc(F)cc3)N(CCC3=CCCCC3)C2=O)c1 (stereo not drawn),-5%,-15%
Cc1c(NC(=S)N/C(=N/S(=O)(=O)c2ccc(Cl)cc2)c2ccccc2)c(=O)n(-c2ccccc2)n1C,-5%,-9%
CCOC(=O)NC(NCCc1ccccc1)(C(F)(F)F)C(F)(F)F,i,-6%
Cc1ccc(CNC(=O)CCc2cn(Cc3ccc(C)cc3)c3ccccc23)cc1,-12%,-10%
COc1cccc(C(=O)N2c3nc(-c4ccco4)nn3C3(CCCCC3)[C@@H]3CCCC[C@@H]32)c1,-2%,3%
CC(C)NC(=O)N(C)C[C@H]1Oc2c(NC(=O)Nc3ccccc3)cccc2C(=O)N([C@H](C)CO)C[C@@H]1C,-12%,-3%
CCCCCN1C=CC(=C2C(=O)c3ccccc3C2=O)C=C1,i,-11%
O=C(CCNS(=O)(=O)c1cccc2nonc12)NCc1cccs1,-6%,-15%
CC(=O)c1cccc(-n2c(=O)c3c4c(sc3n(Cc3ccccc3Cl)c2=O)CN(C(C)=O)CC4)c1,-7%,-6%
O=C(NCc1ccccn1)c1ccccc1OCc1ccccc1Cl,-16%,-9%
O=[N+]([O-])c1cccc(COc2ccc(CN3CCCC3)cc2)c1,-24%,-9%

# Compound activity deposited in PubChem BioAssay by National Center for Advancing Translational Sciences (NCATS).
